Vaccinia pol inh: vaccinia E9 polymerase processive synthesis inhibitors, primary screen, biochemical, absorbance. 46,000 compounds, 0.94% hits. in vitro processive DNA synthesis, absorbance read-out; active compounds read low; some inactives read as strong as hits. AID 493162, 2011. Vaccinia virus DNA polymerase (E9) processive complex. normalized absorbance, % (no concentration beside the values);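 active = replicate mean up to 90% and picked by the depositor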;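 note: 100% = median of the test wells of a plate; 100 nL library stock went into each well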
Numbers without * were called inactive. The list is partial (hit frequency here may not be typical).

SMILES	Vaccinia pol inh
Cc1ccc2c(c1)sc(=NC(=O)c1cccc(N3C(=O)CCC3=O)c1)n2C	88.3
O=C(O)c1nn(-c2ccccc2)c2c1CCc1occc1-2	83.9
N#Cc1cccc(NC(=O)CSc2ccccc2Cl)c1	82.1
Cn1ccnc1SCc1csc(-c2ccccc2)n1	102.0
COC(=O)CSc1nnc(-c2c[nH]c3ccccc23)n1C	99.1
O=C1Nc2ccc(I)cc2/C1=C/c1cc(Br)c(O)c(Br)c1	100.0
COC(=O)c1sc(-c2ccccc2)cc1NC(=O)c1ccccc1	101.1
O=C(O)c1ccccc1SCc1cn2cc(Br)ccc2n1	106.8
O=c1[nH]c(=O)n(Cc2ccccc2)c2nc[nH]c12	91.6
CN(C)c1cccc(C(=O)OCC(N)=O)c1	105.0
Cn1c(-c2ccccc2)cn2nc[n+](C)c12	100.3
O=c1c(NCCCN2CCOCC2)c(Br)cnn1-c1ccccc1	99.5
Cc1oc2cc(OC(=O)C(C)NC(=O)OCc3ccccc3)ccc2c(=O)c1Oc1ccccc1 (stereo not given)	96.8
COc1ccccc1C(=O)OCc1ccc(F)cc1	96.3
C/C(=N/O)C1CCCCCCCCCCC1	98.6
O=C(N1CC23C=CC(CC2CC12CCCCC2)O3)C(F)(F)F (stereo not given)	100.3
CCOC(=O)c1ccc(N2CC3CCCCN3C2c2ccc(Cl)cc2)cc1 (stereo not given)	95.6
S=C(NCCCN1CCOCC1)N1CC2CCC(CC2)C1	102.6
CC(C)(C)C1CCc2[nH]c3ccccc3c2C1 (stereo not given)	100.2
CCCc1c(C(=O)NC2CCN(Cc3ccccc3)CC2)cnn1-c1ccccc1	101.7
CS(=O)(=O)N(CCC#N)Cc1ccco1	101.5
CC(C)CCOc1ccc(C2(C)NC(=O)N(CN3CCOCC3)C2=O)cc1 (stereo not given)	100.2
CCN(C(=O)c1cc2ccccc2oc1=O)c1ccccc1	99.6
CC(C)(C)c1ccc(O)c(C(C)(C)C)c1O	100.5

Part of the list above in another layout:
Structure | Vaccinia pol inh
CC(C)(C)C1CCc2[nH]c3ccccc3c2C1 (stereo not given) | 100.2
CCCc1c(C(=O)NC2CCN(Cc3ccccc3)CC2)cnn1-c1ccccc1 | 101.7
CS(=O)(=O)N(CCC#N)Cc1ccco1 | 101.5
CC(C)CCOc1ccc(C2(C)NC(=O)N(CN3CCOCC3)C2=O)cc1 (stereo not given) | 100.2
CCN(C(=O)c1cc2ccccc2oc1=O)c1ccccc1 | 99.6
CC(C)(C)c1ccc(O)c(C(C)(C)C)c1O | 100.5

(further entries)
SMILES	Vaccinia pol inh
O=S1(=O)NC(c2cccc(Br)c2)Nc2ccccc21 (stereo not given)	98.4
N/C(=N\c1nc(=O)c2ccccc2s1)NC(=O)Nc1ccc(F)cc1	100.1
S=C(Nc1ccccn1)Nc1ccccn1	110.2
O=C(NS(=O)(=O)c1ccc(Cl)s1)c1ccccc1	98.8
COC(=O)C1CCN1C1CCCCC1 (stereo not given)	96.6
O=C(O)CNC(=O)CSc1ccc(Cl)cc1	100.6
O=C(COc1ccccc1)NC(=S)Nc1ccc2[nH]c(=O)[nH]c2c1	100.1
CCCN(CCC)Cc1c(O)ccc2c(=O)c(-c3ccccc3)coc12	99.9
Cc1c(C(=O)Nc2ccccc2)cnn1-c1ccc(F)cc1	94.4
COc1cc(F)ccc1S(=O)(=O)N1CCCCC1C (stereo not given)	98.1
CCOC(=O)C1CCN(CC(=O)c2ccc(C)cc2)CC1	100.8
CN1CCN(C(=O)CCCN2C(=O)/C(=C/c3ccc(Cl)cc3)SC2=S)CC1	101.3
CCCCC/C=C\C/C=C\C/C=C\C/C=C\CCCC(=O)N[C@H](C)CO	100.9
CCOC(=O)c1c(N)n(C2CCCCC2)c2nc3ccccc3nc12	100.5
O=C1S/C(=C\c2ccco2)C(=O)N1c1ccccc1	107.3
COC(=O)c1cc2sccc2n1C	88.3
c1ccc(CN(Cc2ccccc2)c2nn[nH]n2)cc1	89.8
O=C(N/C=N/O)c1ccc(-n2ccnc2)cc1	90.2
N#Cc1ccc(OCC(=O)N2CCCc3ccccc32)cc1	90.5
CC1CCN(c2ncnc3c2cnn3-c2ccccc2)CC1	99.7
NC(=O)NC(=O)CC1Nc2ccccc2NC1=O (stereo not given)	99.1
CCOC(=O)C1=C(N)Oc2c(c(=O)oc3ccccc23)C1c1ccccc1 (stereo not given)	101.2
Cc1ccccc1OCCCn1cnc2ccccc21	99.5
CCOc1ccc(-n2c(=O)c3sccc3n(CC(=O)Nc3cccc(C(F)(F)F)c3)c2=O)cc1	101.7
CCCC(=O)NCCc1nc2ccccc2n1C	101.9
Oc1ccccc1-n1cccc1	96.8
COc1c(NC(=O)N2CC(C)OC(C)C2)csc1Cl (stereo not given)	103.6
COc1ccc(/C=C/C(=O)C2=C(O)c3ccccc3C2=O)cc1	79.1
CC(C)CCNC(=O)c1ccc2c(=O)n3c(nc2c1)CCCCC3	99.8
CC(=O)N(c1ccc(C)c(C)c1)C1C=CS(=O)(=O)C1 (stereo not given)	103.0
O=C(Nc1cccc2ccccc12)c1cnn2c1NC(c1ccccc1)CC2C(F)(F)F (stereo not given)	102.6
CCc1nc2ccccc2n1CC(C)C	99.7
CN(C)CCCN1c2ccccc2CCc2ccc(Cl)cc21	97.6
CC(C)n1c(C2CC(=O)N(c3ccccc3)C2)nc2ccccc21 (stereo not given)	106.7
O=C(N/C(=C\c1ccc2c(c1)OCO2)C(=O)N1CCOCC1)c1ccccc1Cl	100.1
OC(CCl)c1ccc(-n2cncn2)cc1 (stereo not given)	98.0
Cc1ccc(OCC(=O)Nc2cc(-c3nn(C)c(=O)c4ccccc34)ccc2N2CCOCC2)cc1	100.4
CCCCN1COc2ccc(CCNC(=O)c3ccc(Cl)cc3)cc2C1	99.8
COc1cc(OC)c(C(=O)N2CCN(c3ccccc3F)CC2)cc1OC	96.9
Cc1ccc(Nc2nc(C(=O)N3CCCCC3)cs2)cc1	84.7
CC(=O)N(Cc1ccc(C(C)C)cc1)c1ccc2oc(-c3ccccc3)nc2c1	100.0
OC(COc1cccc2cccnc12)Cn1c2ccccc2c2ccccc21 (stereo not given)	100.4
Cc1oc(-c2ccccc2Cl)nc1CSCC(=O)NC1CCCC1	94.0
CCC1CCCCN1C(=O)COC(=O)c1cncc(Br)c1 (stereo not given)	101.8
CCC(C)COc1ccc(O)cc1 (stereo not given)	83.0
COc1ccc(CC2CCc3ncc(C)cc3C2)cc1 (stereo not given)	100.1
O=C(Nc1ccccc1)C(Cc1ccccc1)N1C(=O)C2C3C=CC(C3)C2C1=O (stereo not given)	102.2
C1CCN(CC2COC3(CCCCC3)O2)CC1 (stereo not given)	102.2
CN(C)c1nnnn1-c1cccc(C(F)(F)F)c1	86.4
c1coc(CNc2ncnc3nc[nH]c23)c1	93.0
Nc1cc2c(cc1C(O)(C(F)(F)F)C(F)(F)F)OCCO2	86.2
CN(C)CC1CCCCC1OC(=O)c1ccccc1Cl (stereo not given)	100.6
OC1(C(F)(F)F)CC(/C=C/c2ccccc2)=NO1 (stereo not given)	99.8
O=C(Nc1ccccc1C(F)(F)F)c1cccn(OCc2ccccc2)c1=O	100.6
CC(C)OC(=O)C(C)(C)Oc1ccc(C(=O)c2ccc(Cl)cc2)cc1	99.5
CCOc1ccc(-c2cn3c(c2C)-c2cccn2CC3)cc1	91.0
CCOc1ccc2c(=O)c(Oc3ccc(OC)cc3)coc2c1	99.5
CCOc1ccc(NC(=O)NC23CC4CC(CC(C4)C2)C3)cc1	100.3
NC(=O)C(C(N)=O)C1CCS(=O)(=O)C1 (stereo not given)	99.5
CCCn1c(=O)c2[nH]c(C3CCCC3)nc2n(CCC)c1=O	90.2
Going on with the list:
SMILES	Vaccinia pol inh
CN/C=C1\C(=O)C(C)(C)Oc2ccc3ccc(=O)oc3c21	90.9
Cc1ccc(-c2cc3c(n2-c2ccccc2)CC(C)(C)CC3=O)cc1	102.1
CCCNc1nc(SCc2ccc(Cl)cc2)nnc1C	89.5
O=C(Cc1c(F)cccc1Cl)Nc1ccc2nc3n(c(=O)c2c1)CCCCC3	100.7
O=C1c2ccccc2C(=O)N1CCCC(=O)N(Cc1nc(-c2ccccc2)no1)C1CCCCC1	78.6
CCOC(=O)C1=C(C)NC(=O)C1CC(=O)Nc1ccc(C(=O)OCC)cc1 (stereo not given)	103.2
COc1ccc(NC(=O)CSc2ncccc2C(=O)Oc2ccccc2Cl)cc1OC	99.0
Cc1ccc2oc(=O)c3cnn(CC(=O)N4CCCCC4C)c3c2c1 (stereo not given)	103.0
CCOC(=O)N1CCN(C(=O)CSc2nc3c(cnn3-c3ccc(C)cc3)c(=O)[nH]2)CC1	89.2
NS(=O)(=O)c1nn2cc(-c3ccccc3)nc2s1	99.0
CC(C)(C)C(/C=C/c1ccc(Cl)cc1Cl)n1nnnc1C(C)(C)N1CCOCC1 (stereo not given)	100.3
CCOC1=NC(C(F)(F)F)(C(F)(F)F)N=C2Sc3ccccc3N12	101.7

Laid out differently: entries from further up.
mol: O=C(Cc1c(F)cccc1Cl)Nc1ccc2nc3n(c(=O)c2c1)CCCCC3
  Vaccinia pol inh: 100.7
mol: O=C1c2ccccc2C(=O)N1CCCC(=O)N(Cc1nc(-c2ccccc2)no1)C1CCCCC1
  Vaccinia pol inh: 78.6
mol: CCOC(=O)C1=C(C)NC(=O)C1CC(=O)Nc1ccc(C(=O)OCC)cc1 (stereo not given)
  Vaccinia pol inh: 103.2
mol: COc1ccc(NC(=O)CSc2ncccc2C(=O)Oc2ccccc2Cl)cc1OC
  Vaccinia pol inh: 99.0

Next part
SMILES	Vaccinia pol inh
O=COCC1OC(OC=O)C(Nc2ccccc2)C(OC=O)C1OC=O (stereo not given)	100.1
O=C(CSC1CCCC1)c1ccccc1Cl	94.8
CCCCN(C)C(=O)c1ccc(Sc2ccc(Cl)cc2)c(NC(C)=O)c1	81.6
Cc1ccc(N=Cc2cc3ccccc3[nH]c2=O)cc1	96.6
CCn1c(SCCn2c(=S)n(C)c3ccccc32)nc2ccccc21	100.4
FC(F)(F)c1ccc2nc(SCc3ccc(Br)cc3)[nH]c2c1	101.4
CCc1c(C)sc(NC(=O)C2c3ccccc3Oc3ccccc32)c1C(=O)OC	98.9
Cc1cccc(C(CC(=O)N2CCCC2)c2ccccc2)c1O (stereo not given)	100.0
COc1ccc(NC(=O)c2ccc3nc(C)c(C)nc3c2)cc1	100.6
CC1CCN(C(=O)COC(=O)/C=C/c2cccs2)CC1	107.5
COC(=O)c1nnn(-c2ccccc2)c1C(=O)OC	81.9
CCOc1nc(NC(=O)NS(=O)(=O)c2cccc(Cl)c2)nc(-c2ccccc2)n1	100.4
Cc1cc(NC2CCCCC2)nc(NCc2ccccc2)n1	95.7
O=c1cc(CO)occ1O	100.4
Clc1ncccc1-c1nc2ccccc2n1Cc1ccccc1	103.4
O=c1nc2sc3ccccc3n2c(=O)n1-c1ccccc1	76.4
Cc1cccc(NC(=O)C2c3ccccc3C(=O)N3CCc4ccccc4C23)n1 (stereo not given)	103.5
CCS(=O)(=O)c1ccc(O)c(NC(=O)COc2ccc(OC)cc2)c1	100.4
CC(C)C(=O)Nc1ccc(-c2nc3cc(Cl)ccc3o2)cc1	93.3
N#CC1=C(SCC(=O)Nc2ccccc2F)NC2=C(C(=O)CCC2)C1c1ccco1 (stereo not given)	114.3
COC(Cc1nc2ccccc2s1)C(=O)O (stereo not given)	101.0
O=S(=O)(c1cccs1)N1CCCCCC1	106.8
O=C(COC(=O)c1ccc(OC(F)(F)F)cc1)NCc1ccccc1	100.1
CCCCN(C)c1nc(CC)c2c(c1C#N)CC(C)(C)OC2	97.9
O=C(CN(C1=NC2CS(=O)(=O)CC2S1)c1ccc(F)cc1)Nc1ccccc1C(F)(F)F (stereo not given)	102.9
CC1CC(C)CN(CCCNC(=O)c2cccc3c2SCCC3=O)C1 (stereo not given)	98.3
Cc1ccc(CNC(=O)CSc2nc(NCCc3ccccc3)c3ccccc3n2)cc1	100.2
CC(=O)Nc1ccc2nc(NC(=O)CCOc3ccccc3)sc2c1	91.1
NC1=NC(=O)/C(=C/c2ccc(O)c(Br)c2)S1	99.6
Cc1cc2c(c(=O)n1CC1CCCO1)C(c1cccs1)C(C#N)=C(N)O2 (stereo not given)	111.1
O=C(Oc1ccccn1)C1COc2ccccc2O1 (stereo not given)	99.8
CSc1ccccc1NC(=O)C1CC(c2cccc(Br)c2)=NO1 (stereo not given)	91.8
COC(=O)c1c(C)oc2ccc(N(C(=O)C3CCCCC3)S(=O)(=O)c3cc(C)c(C)cc3C)cc12	100.6
Cc1c(CCl)cc(C(=O)O)cc1CCl	98.1
COc1cc2c(cc1OC)CN(C(=S)Nc1ccccc1)CC2	99.6
O=c1ccc2ccc(OCCOc3ccc4ccc(=O)oc4c3)cc2o1	100.3

Some of the entries so far, with each value named.
Cc1c(CCl)cc(C(=O)O)cc1CCl
  Vaccinia pol inh: 98.1
COc1cc2c(cc1OC)CN(C(=S)Nc1ccccc1)CC2
  Vaccinia pol inh: 99.6
O=c1ccc2ccc(OCCOc3ccc4ccc(=O)oc4c3)cc2o1
  Vaccinia pol inh: 100.3

Further results.
SMILES	Vaccinia pol inh
O=C(CCn1nc(-c2ccc(Cl)cc2)c2ccccc2c1=O)NCC1CCCO1 (stereo not given)	99.5
CCOc1ccc(N=Cc2c(C(=O)O)[nH]c3ccccc23)cc1	99.9
COc1ccc2c(Sc3ccccc3)c(C(=O)N3CCc4ccccc43)[nH]c2c1	96.8
COc1ccc(CCn2cnc3oc(-c4ccccc4)c(-c4ccccc4)c3c2=N)cc1OC	99.8
COCc1cc(C)nc2snc(Br)c12	99.6
CC(=O)N1CCc2c(sc(NC(=O)c3ccc(C#N)cc3)c2C#N)C1	99.2
Nc1c(-c2nc(-c3ccc4c(c3)OCO4)no2)nnn1-c1cccc(C(F)(F)F)c1	103.4
COc1ccc2c(c1)sc(=NC(=O)CSCC(=O)N1CCc3ccccc31)n2C	100.1

Bioassay records deposited in PubChem BioAssay by ICCB-Longwood Screening Facility, Harvard Medical School.
